Screens as filed in PubChem.
UCH37 DUB inh: human UCH37 deubiquitinating enzyme inhibition | actives 0.33% (n = 330,000) | Q9Y5K5 | inhibition, % (no concentration beside the values) | purified proteasome/UCH37, Ub-AMC cleavage fluorescence | AID 588478;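 active means mean of two replicates above 20%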;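 further: 0% = compound-free wells with enzyme and 100% = wells lacking proteasome; stock transfer was 100 nL into about 20 µL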
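Material: Human UCH37 enzyme supplied as purified proteasome complex | Schedule: 30 min preincubation with enzyme, 25 min cleavage at room temperature | Detection: AMC fluorescence 355/460 nm | Measure: % inhibition of Ub-AMC cleavage fluorescence | Controls: Wells without proteasome as full block, compound-free enzyme plus substrate as uninhibited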
LANA-H2B inh: blocks KSHV LANA binding to histone H2A/H2B | Q9QR71 | cell-free LANA-H2A/H2B peptide, fluorescence polarization | inhibition, % (test concentration not listed) | actives 0.6% (n = 320,000) | AID 2629; in the data active means inhibition mostly above about 10%, no sharp cut-off; inactive means mostly below about 6.7%;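 further: stock transfer was 7.5 nL into about 10 µL; 0% = median of vehicle wells and 100% = median of positive control wells; one replicate is shown; the record names a cut of 25% in any replicate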
ALR H2O2 inh: blocks human ALR sulfhydryl oxidase activity; purified ALR, DTT oxidation, H2O2 HRP-luminol luminescence; actives 3.8% (n = 290,000); AID 485317; P55789; inhibition, % (concentration not given with the values);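 active means mean and each replicate at 75% or more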;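 further: stock transfer was 7.5 nL into about 7.5 µL; 0% = neutral wells and 100% = wells with inactivated enzyme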
Target sequence (P55789 whole entry, looked up): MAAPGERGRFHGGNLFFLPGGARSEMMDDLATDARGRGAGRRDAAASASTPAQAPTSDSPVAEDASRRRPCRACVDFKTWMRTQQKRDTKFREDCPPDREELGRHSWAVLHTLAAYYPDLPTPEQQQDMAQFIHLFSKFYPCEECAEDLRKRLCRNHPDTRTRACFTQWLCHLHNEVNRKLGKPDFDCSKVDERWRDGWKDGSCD
Beta2AR agonist: agonists of human beta-2 adrenergic receptor inducing internalization | P07550 | Am2.2-beta2AR cells, FAP receptor internalization, flow cytometry; reference of the scale not given here | response, % (concentration not given with the values) | actives 0.43% (n = 340,000) | AID 504454;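 active means response above a set limit, near 3 SD of response in nonfluorescent compounds, cut at about 42% in these data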;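 further: stock transfer was 100 nL into about 11 µL; a reference agonist was the positive control; negative values mostly stem from fluorescent compounds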
Target sequence (P07550 whole entry, looked up): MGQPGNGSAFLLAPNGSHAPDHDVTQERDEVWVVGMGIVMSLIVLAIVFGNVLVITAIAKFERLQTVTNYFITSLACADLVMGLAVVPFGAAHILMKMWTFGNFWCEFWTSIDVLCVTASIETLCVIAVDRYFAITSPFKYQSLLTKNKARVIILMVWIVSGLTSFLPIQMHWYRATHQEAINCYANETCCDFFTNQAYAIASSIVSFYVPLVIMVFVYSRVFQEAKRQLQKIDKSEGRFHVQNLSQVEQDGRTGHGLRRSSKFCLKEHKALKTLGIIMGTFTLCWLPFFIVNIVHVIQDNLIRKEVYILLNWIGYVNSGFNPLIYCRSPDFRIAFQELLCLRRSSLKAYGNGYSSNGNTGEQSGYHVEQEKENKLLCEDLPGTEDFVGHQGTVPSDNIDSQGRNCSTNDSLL
FGF22 binding: shifts melting point of recombinant human FGF22 | recombinant FGF22 thermal shift, SYPRO orange fluorescence; percent of sucrose octasulfate shift, DMSO zero | calls only at 9.99 µM | actives 1.5% (n = 340,000);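 active means melting point raised past a set limit in the mean and every replicate; three in four hits are not shown here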
Target sequence (Q9HCT0 whole entry, looked up): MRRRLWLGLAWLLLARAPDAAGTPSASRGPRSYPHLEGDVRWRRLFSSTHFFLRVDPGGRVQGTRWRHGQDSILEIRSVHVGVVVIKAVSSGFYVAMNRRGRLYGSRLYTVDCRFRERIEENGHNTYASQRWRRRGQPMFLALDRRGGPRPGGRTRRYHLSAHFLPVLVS
Ecoli growth: blocks Escherichia coli growth. OD600 absorbance (no concentration beside the values). AID 1053175. actives 0.21% (n = 330,000). OD600, 23 h; active compounds read low;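 active means OD600 absorbance below the run mean of sample wells minus 3.6 SD, in any replicate, cut at about 0.56 in these data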;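 further: stock transfer was 300 nL into about 60 µL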
HNF4A DNA FP: change in binding of human HNF4 alpha to DNA; P41235; HNF4a-FITC DNA binding, fluorescence polarization, 1 h; activity change, % at 10 µM; actives 0.3% (n = 360,000); AID 1224865; in the data active means activity change above about 30%, passing the limit was not always enough;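 further: controls were the assay level and a saturating level of protein; the project sought stronger binding though the title names inhibitors; some compounds called inactive have numbers as strong as hits; positive values seem to mean higher polarization but the record does not say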
* hit, by the source's call; i = inactive; / = not tested or not shown. Not all compounds are listed, so the mix of outcomes need not match the whole.

SMILES	UCH37 DUB inh	LANA-H2B inh	ALR H2O2 inh	Beta2AR agonist	FGF22 binding	Ecoli growth	HNF4A DNA FP
CCN1CCN(Cc2ccc(NC(=O)c3cc(NC(=O)c4cnn(-c5ccccc5)c4N)cc(OC)c3)cc2C(F)(F)F)CC1	0.7	2.0	4	14	i	0.69	0.7
Cc1cc(C)n(CC(C)NCc2c(C(=O)N3CCOCC3)nc3c(C)cccn23)n1 (centres undefined)	-0.2	-1.3	/	-7	i	0.69	1.9
O=C(NCc1ccco1)c1ccc(COc2ccccc2Cl)cc1	2.8	15	99*	-7	/	0.76	-3.0
COc1cc(SC)ccc1C(=O)N(C)CC(=O)Nc1cccc2ccccc12	5.4	-2.5	-4	-5	i	0.72	-1.9
Cc1ccccc1C(=O)NC(CC(C)C)C(=O)Nc1ccc(F)c([N+](=O)[O-])c1 (centres undefined)	2.8	-2.9	-4	4	i	0.7	-3.1
COc1ccc(NC(=O)C23CC4CC(C2)CC(n2cnc(Br)n2)(C4)C3)cc1OC	0.6	3.2	-7	4	i	0.72	1.6
COc1ccc(CCNc2ncccc2C#N)cc1OC	2.6	5.9	-4	-3	i	0.71	-1.9
Cc1occc1C(=O)N1CCC2(CCCN(Cc3ccc(F)c(F)c3)C2)C1 (centres undefined)	/	8.7	-6	9	i	/	-0.3
CC(C)(C)OC(=O)NNC(=O)NC12CC3CC(CC(C3)C1)C2	1.4	0.0	/	9	/	0.66	1.7
FC(F)(F)c1cc(N2CCNCC2)c2ccccc2n1	3.0	-3.5	2	-2	i	0.68	-4.1
CNCCCOc1cccc(Oc2ccccc2)c1	5.1	1.3	5	7	i	0.61	2.4
COCCCNC(=S)N1CCN(c2ccccc2)CC1	4.2	-4.1	97*	-7	i	0.65	0.8
CS(=O)(=O)c1ccc2nc(NC(=O)c3cccs3)sc2c1	14	1.3	-1	-6	/	0.78	1.5
N#Cc1cnn2ccc(-c3ccc4c(c3)CCC4)nc12	-407	-1.0	/	-4	i	0.69	1.3
CCOC(=O)N1CCN(C(=O)Cn2ccc3ccccc3c2=O)CC1	0.0	4.9	-3	2	/	0.77	2.8

Of the compounds above, these have a furan ring, fused or not:
SMILES	UCH37 DUB inh	LANA-H2B inh	ALR H2O2 inh	Beta2AR agonist	FGF22 binding	Ecoli growth	HNF4A DNA FP
O=C(NCc1ccco1)c1ccc(COc2ccccc2Cl)cc1	2.8	15	99*	-7	/	0.76	-3.0
Cc1occc1C(=O)N1CCC2(CCCN(Cc3ccc(F)c(F)c3)C2)C1 (centres undefined)	/	8.7	-6	9	i	/	-0.3

New compounds follow:
SMILES	UCH37 DUB inh	LANA-H2B inh	ALR H2O2 inh	Beta2AR agonist	FGF22 binding	Ecoli growth	HNF4A DNA FP
COc1ccc2[nH]c3c(Cl)ncnc3c2c1	-12	-6.0	47	15	i	0.68	-2.5
CC(=O)OCc1cc2cc(C)ccc2[nH]c1=O	-2.3	7.0	1	6	/	0.7	1.3
COc1cc(C(=O)NCC(=O)NC(C)CCc2ccccc2)cc(OC)c1OC (centres undefined)	1.6	-0.7	-1	4	i	0.72	2.0
C[C@@H](CSc1ccc(Br)cc1)CN1CC[C@H](NC(=O)OCc2ccccc2)CCC1=O	/	7.5	-2	-15	i	/	-2.6
CCc1nnc(NC(=O)C2CC(=O)N(C3CCCCC3)C2)s1 (centres undefined)	3.2	-2.3	0	-7	i	0.7	1.4
CN(CC(=O)Nc1ccc(F)cc1)C(=O)COC(=O)COc1ccc(C#N)cc1	0.4	-2.7	-1	3	i	0.66	-4.5
CCN(CC(=O)Nc1cccc(F)c1)CC(=O)Nc1ccccc1OC	2.4	3.0	-28	-7	i	0.69	4.8
COc1ccc(C)cc1NC(=O)CN(C)S(=O)(=O)c1cc(C)ccc1OC	3.1	-0.6	-15	-1	/	0.69	2.8
COc1ccc(N(CC(=O)Nc2cc(C)on2)S(=O)(=O)c2cc(C)ccc2C)cc1	2.6	-3.1	-16	3	/	0.69	2.4
CCOc1ccc(NC(=O)CC)cc1	-0.7	0.9	-6	/	/	0.7	/
C/C(=N/NS(=O)(=O)c1ccc(C)cc1)c1ccc2c(c1)OCO2	/	4.7	26	2	i	/	2.7
COCCNC(=S)Nc1ccccc1[N+](=O)[O-]	4.4	2.7	/	-4	i	0.67	3.8
CCOc1ccccc1NC(=O)COc1cccc(-n2cnnn2)c1	2.7	0.7	-17	-17	/	0.71	-0.1
CCCC(=O)c1ccc(N2CCN(C(=O)c3ccc(Br)cc3)CC2)c(F)c1	1.5	1.7	/	-9	/	0.73	-1.7
COc1ccc2[nH]c(=O)c(CN(Cc3ccco3)C(c3nnnn3Cc3ccccc3)C(C)C)cc2c1 (centres undefined)	-29	-3.4	0	-24	/	0.77	-0.4
CCCC(=O)N(CC(=O)Nc1sc(C)c(C)c1C(N)=O)Cc1ccccc1	5.2	-0.9	/	4	i	0.69	-4.5
CSc1nnc2c(n1)c(C)nn2-c1ccc(C)cc1	1.2	4.3	-3	-2	/	0.7	4.6
O=C(CCS(=O)(=O)c1ccc(Cl)cc1)NCCc1c[nH]c2ccccc12	2.6	-0.2	4	13	i	0.67	3.7
C/C(=N\NC(=O)Nc1ccccc1)c1ccccc1	/	-2.1	-39	-1	i	/	0.3
O=C1CCCN1CCCn1cnc2c([nH]c3ccc(F)cc32)c1=O	-4.2	-12	-1	-17	/	0.78	-2.8
COc1ccc(S(=O)(=O)N2CCC(C(=O)NCC3CCCO3)CC2)cc1C (centres undefined)	2.7	-3.5	-3	2	/	0.67	0.9
Cc1cc(N2CCC(C)CC2)nc(-n2nc(C)cc2C)n1	1.0	0.3	22	7	/	0.72	5.0
COC(=O)c1ccccc1NC(NC(=O)c1ccco1)C(=O)c1ccccc1 (centres undefined)	0.2	0.8	0	-4	/	0.74	2.9
CCOC(=O)N1CCC(=NNS(=O)(=O)c2cccc([N+](=O)[O-])c2)CC1	4.9	1.0	-2	3	/	0.75	1.3
Cc1ccc2nc(-c3ccccc3)nn2c1	2.2	/	/	0	i	0.67	2.5
CC(C)(C)OC(=O)N(CCc1ccccc1)Cc1ccc(OCc2cccc(NC(=O)c3ccccc3)c2)cc1	/	/	/	6	i	/	0.9
CCOC(=O)C=Nc1c(N)n(C)c(=O)n(C)c1=O	-4.0	-3.0	11	0	/	0.67	-3.3
C=CCNC(=O)CN(c1ccccc1OCC)S(=O)(=O)c1ccc(C)cc1	0.2	-1.7	-13	-8	/	0.66	3.3
CCN(CC)CCNC(=O)C(C)c1nn(CC)c(=O)c2ccccc12 (centres undefined)	0.1	7.2	/	-6	i	0.66	-1.0
O=C(O)c1ccc(N=NN2CCCCC2)cc1	10	-0.3	-7	7	i	0.66	-4.5
CCOC(=O)N1CCC(NC(=O)c2cnn3ccccc23)CC1	-4.3	0.3	-6	-6	i	0.74	-3.5
Cc1ccc(C(=O)NC(C)C(c2cccs2)N2CCCC2)s1 (centres undefined)	2.3	4.1	52	-1	i	0.69	-5.3
Cc1ccc(C)c(NC(=O)c2cc(S(=O)(=O)N3CCCCC3)c[nH]2)c1	7.5	-2.0	-3	-4	i	0.71	4.9
COc1ccc(CN2CCN(c3ccccn3)CC2)c(OC)c1	2.2	3.5	-2	-3	/	0.7	0.5
O=C(Nc1nc(-c2ccco2)c(-c2ccco2)s1)C1CC(=O)N(c2ccc3c(c2)OCCO3)C1 (centres undefined)	-1.9	6.1	-11	3	/	0.71	-34
COc1ccc(OCCCC(=O)Nc2nc(-c3ccccn3)cs2)cc1	0.1	-3.8	-1	-12	i	0.69	-6.4
COc1cccc2cc(C(=O)C3=C(O)C(=O)N(Cc4ccco4)C3c3cccnc3)oc12 (centres undefined)	12	2.6	9	-1	/	0.67	0.4
O=[N+]([O-])c1ccccc1NCc1ccccc1Cl	-0.2	/	/	1	i	0.69	2.7
Cc1nnc(N(Cc2ccco2)C(=O)c2ccno2)s1	4.4	9.1	-2	-4	/	0.72	5.0
CCCC(=O)c1ccc(O)cc1O	/	/	/	-13	i	/	3.0
Cc1ccc2sc(NC(=O)CSc3nc(C)cc(C)c3C#N)nc2c1	-22	-0.6	-2	-1	/	0.85	-1.4
Cc1cc(OCC(=O)NC2CC2)c2c(C)c(C)c(=O)oc2c1	-102	-0.5	-8	-4	i	0.68	3.7
C=CCNCc1cccn1-c1ccccc1	1.6	1.0	6	0	/	0.7	-6.7
CCN(C(=O)c1cc2c(=O)[nH]c3ccc(C)cc3c2s1)c1cccc(C)c1	-19	0.3	-10	-3	i	0.67	3.0
Oc1ccc(/C=N/Nc2cc(N3CCCC3)nc(N3CCCC3)n2)cc1	/	-5.8	14	13	/	/	5.5
CCOc1ncccc1C(=O)OCC(=O)Nc1cc(C)ccc1C	-2.4	-5.5	11	2	/	0.72	-3.7
CC(=O)OC(C(=O)NC1CCCCC1)c1ccncc1 (centres undefined)	1.0	0.9	-11	0	i	0.68	-0.3
COc1ccc(C(=O)COC(=O)c2ccccc2NS(=O)(=O)c2ccc(O)c([N+](=O)[O-])c2)cc1	2.2	-2.7	9	0	i	0.68	-0.7
N=C(N)N1CCc2ccccc21	4.5	-3.9	/	1	i	0.64	0.7
CCn1c(/C=C2\C(=O)N(C)c3ccccc32)nc2ccccc2c1=O	6.4	-2.3	7	2	/	0.73	0.0
O=C(N1CCOCC1)C1(c2ccccc2)CCCCC1	1.1	-0.9	/	11	/	0.71	-0.1
CCOC(=O)C1(CCOC)CCN(Cc2cnc(-c3cccc(C)c3)nc2)CC1	3.2	-1.8	/	1	i	0.72	-0.3
Cn1c(=O)oc2cc(S(=O)(=O)N3CCC(C(=O)N4CCN(c5ccc(F)cc5)CC4)CC3)ccc21	-0.1	-4.0	6	-16	i	0.68	3.2
CCN(c1ccccc1)S(=O)(=O)c1cc(C(=O)NCC(c2ccco2)N2CCCCC2)ccc1C (centres undefined)	1.1	-2.1	-8	-5	i	0.69	3.4
O=C(CSc1ncnc2nc[nH]c12)NCCc1ccccc1	2.6	-1.1	8	-2	/	0.67	1.2
Cc1cc(NC(=O)C2CCN(S(=O)(=O)Cc3ccccc3)CC2)ccc1-n1cnnn1	4.9	43*	-17	4	/	0.71	2.7
c1ccc(-c2noc(-c3ccc4ccccc4c3)n2)cc1	-1.8	-1.5	-16	1	/	0.71	-0.9
CC(=O)N1CCc2cc(S(=O)(=O)NC(C(=O)NCc3ccccc3)C(C)C)ccc21 (centres undefined)	-1.4	-1.3	12	-2	/	0.73	-3.1
Cc1sc(NC(=O)CN2CCOCC2)c(C(=O)c2ccccc2)c1C	4.8	-0.9	8	-15	/	0.73	3.0
CC#CC(=O)N1CCC(n2nccc2NC(=O)c2ccc3c(c2)OCO3)CC1	0.3	-5.4	-7	2	i	0.69	0.8
Next results.
SMILES	UCH37 DUB inh	LANA-H2B inh	ALR H2O2 inh	Beta2AR agonist	FGF22 binding	Ecoli growth	HNF4A DNA FP
COc1ccccc1/C=C1\SC(=O)N(CCC(=O)NCCCn2ccnc2)C1=O	3.7	-1.4	-2	-10	i	0.68	-3.2
COc1ccccc1Nc1nc(-c2ccc3c(c2)NC(=O)CO3)cs1	2.2	-0.8	-4	25	i	0.7	-4.0
COC(=O)c1c(C)nn(-c2ccc(F)c(Cl)c2)c1-c1cc(C)on1	4.1	-6.0	/	2	i	0.67	0.5
COc1cccc(/C=N/NC(=O)CNC(=O)c2cccs2)c1O	/	0.1	/	4	i	/	-0.9
CN(Cc1ccccc1)C(=O)COC(=O)CCC(=O)c1ccc(Cl)cc1	1.0	3.3	-2	-1	i	0.67	-0.9
CCc1nn2c(=O)cc(COC(=O)c3ccc(SC)cc3OC)nc2s1	1.3	-1.1	-10	-2	i	0.64	-0.1
COc1ccccc1N(CC(=O)NCc1ccc(F)cc1)C(=O)CCC(=O)Nc1nccs1	0.5	-0.4	-1	8	i	0.66	1.7
Cc1ccc(Cl)cc1N1CCN(C(=O)C2CCCN(S(=O)(=O)c3cnc[nH]3)C2)CC1 (centres undefined)	2.3	-0.7	11	7	i	0.77	0.6
Cc1nn(Cc2ccccc2)c(C)c1NC(=O)c1ccc([N+](=O)[O-])cc1[N+](=O)[O-]	-0.3	3.4	-22	-9	i	0.65	-4.2
